From PubChem
Mtb MbtI inh = inhibitors of Mycobacterium tuberculosis siderophore enzyme MbtI; hit rate 0.89% among 100,000; P9WFX0; inhibition, %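 (about 17 µg/mL by stock and volumes)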; AID 493033; purified MbtI enzyme, fluorescence intensity read-out;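 active = above 50% in both replicates, above 80% if mildly self-fluorescent; inactive = the rest, strongly fluorescent compounds included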;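 note: 0% = mean of negative and 100% = mean of positive controls; one replicate is shown; some compounds called inactive have numbers as strong as hits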
Target sequence (P9WFX0 whole entry, looked up): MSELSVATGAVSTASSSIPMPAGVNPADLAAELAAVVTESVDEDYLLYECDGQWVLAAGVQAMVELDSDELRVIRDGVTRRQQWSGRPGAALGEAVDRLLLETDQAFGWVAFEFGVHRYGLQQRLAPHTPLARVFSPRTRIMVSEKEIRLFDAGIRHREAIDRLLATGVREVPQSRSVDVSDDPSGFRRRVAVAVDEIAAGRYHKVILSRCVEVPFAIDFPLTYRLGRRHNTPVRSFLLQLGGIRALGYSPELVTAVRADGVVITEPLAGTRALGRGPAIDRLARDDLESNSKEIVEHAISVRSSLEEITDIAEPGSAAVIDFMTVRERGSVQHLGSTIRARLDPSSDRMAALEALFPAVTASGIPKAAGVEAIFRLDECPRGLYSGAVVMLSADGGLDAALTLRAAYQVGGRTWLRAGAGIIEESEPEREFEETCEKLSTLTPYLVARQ
Mtb MenB inh = blocks the Mycobacterium tuberculosis MenB enzyme; P9WNP5; MenB enzyme assay, absorbance read-out; some hits fall short of the stated cut; inhibition, %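 (about 12 µg/mL by stock and volumes)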; hit rate 0.43% among 100,000;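 active = mean of two replicates above 30%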;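 note: 0% = no compound and 100% = wells with inactive enzyme; the first replicate is given; strong numbers were not always called active; inactives centre near -10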
Polio RdRp inh = inhibitors of poliovirus RNA polymerase binding and polymerization; hit rate 0.66% among 150,000; poliovirus polymerase elongation, fluorescence polarization; stronger effect = lower value; P03300; AID 588519; % elongation, % (compound at 16.7 µg/mL); in the data active = % elongation below about 90%; note: some results filed as inactive read as strong as hits
Target sequence (P03300 1749-2209 limits assumed): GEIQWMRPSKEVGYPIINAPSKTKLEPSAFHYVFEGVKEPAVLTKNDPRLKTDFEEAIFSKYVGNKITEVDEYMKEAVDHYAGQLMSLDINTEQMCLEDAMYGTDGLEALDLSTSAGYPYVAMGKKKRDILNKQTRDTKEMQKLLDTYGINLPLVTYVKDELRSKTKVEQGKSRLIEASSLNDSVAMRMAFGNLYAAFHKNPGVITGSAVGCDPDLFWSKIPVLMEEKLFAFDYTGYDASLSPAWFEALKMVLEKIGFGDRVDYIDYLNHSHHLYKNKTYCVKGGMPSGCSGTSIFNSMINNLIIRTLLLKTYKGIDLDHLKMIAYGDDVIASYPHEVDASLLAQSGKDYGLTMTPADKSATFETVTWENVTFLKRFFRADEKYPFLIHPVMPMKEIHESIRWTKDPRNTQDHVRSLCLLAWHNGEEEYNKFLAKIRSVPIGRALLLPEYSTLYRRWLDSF
Polio RdRp inh intensity = recorded beside Polio RdRp inh, whose call it bears; % elongation; measured here: total intensity read-out; formula for this scale not given here;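 total fluorescence in place of polarization; lower means less elongation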
* marks the source's active call; other numbers are inactive results; . = not tested or not shown; & = joins results of further samples.

SMILES	Mtb MbtI inh	Mtb MenB inh	Polio RdRp inh	Polio RdRp inh intensity
Cc1onc(-c2ccccc2)c1C(=O)Nc1ccnn1C1CCCCC1	-6	-18	101	105
Cn1c(=S)[nH]c2cc(S(N)(=O)=O)ccc21	67	-9	90*	96*
O=C(Nc1ccc(OCc2ccccc2)cc1)NC1CCCc2ccccc21 (configuration not stated)	-3	2	105	112
C/C(=N\NC(=O)c1ccc(CN2CCOCC2)cc1)c1ccc2c(c1)OCCO2	14	-29	102	101
NC(=O)CSc1nnc(CNc2ccc(Cl)cc2)n1Cc1ccccc1	-6	31	101	102
CCn1c(C(=O)N2CCCC(C(=O)NC(C)c3ccc4c(c3)OCCO4)C2)cc2sccc21 (configuration not stated)	4	2	102	98
CCOC(=O)C1CCN(/C=C2\C(=O)NC(=S)N(CC)C2=O)CC1	1	-20	97	101
O=C(O)c1cc(N=Cc2ccc(N3CCCC3)c(F)c2)ccc1O	-80	-18	99	98
CN(Cc1ccccc1)C(=O)c1cc2c(Cl)nc3ccccc3c2s1	9	5	103	99
Cc1ccc(S(=O)(=O)N2N=NC3C4CC(C5CC=CC54)C32)cc1 (configuration not stated)	.	-6	106	106
O=c1c(=Nc2ccc(O)cc2)c(=O)c2ccccc12	42	.	49*	45*
C/C(=N\NC(=O)Cc1cccs1)c1ccc(S(=O)(=O)N2CCCC2)cc1	4	-5	106	108
Cc1ccc(OCC(=O)O)c(-c2ccno2)c1	.	-5	106	103
CCc1c(C)sc(NC(=O)C2CC3CCC2C3)c1C(=O)OC (configuration not stated)	.	-8	88*	81*
O=C(CCc1ccc(O)cc1)N/N=C/c1coc2ccccc2c1=O	14	-22	101	91
COc1ccc(NC(=O)C2CCCN2c2cccc(C(F)(F)F)c2)cc1OC (configuration not stated)	-1	1	101	105
CCC1(c2csc(Nc3ccccc3C)n2)CCC(=O)O1 (configuration not stated)	20	-23	102	103
CCN(Cc1ccccc1)C(=O)Cn1c(=O)n(-c2ccc(C)cc2)c(=O)c2ccccc21	16	-6	101	98
O=C(NCc1ccccc1C(F)(F)F)c1ccc2ccccc2c1	8	5	102	98
CN(C)S(=O)(=O)c1ccc2ncn(O)c2c1	8	16	102	107
N#CCSc1sc2c(O)cc(=O)[nH]c2c1C#N	14	-161	99	104
C=CCn1c2ccc(C)cc2c2nc3ccccc3nc21	-10	0	98	108
O=S(=O)(Cc1ccc2nonc2c1)c1ccc(C(F)(F)F)cn1	2	-4	100	101
CC1CCN(C(=O)C(C)Sc2nnc3c(n2)[nH]c2ccccc23)CC1 (configuration not stated)	7	-57	102	99
CC(C)N(Cc1nnc(-c2ccccc2)o1)C(=O)CN1C(=O)COc2ccccc21	-1	15	106	106
CCN1C(=O)CSC1=NC12CC3CC(CC(C3)C1)C2	-10	-79	99	101
O=C(CC(=O)NCC1CCCO1)NCC1CCCO1 (configuration not stated)	-13	.	100	104
Clc1ccccc1-c1nc(N2CCCC2)c2ccccc2n1	-4	-4	100	101
COc1ccc(CN2C(=O)CC(=O)NC2=S)cc1	3	-120	100	103
O=C1OC2CC3CCC2C1C3 (configuration not stated)	4	12	100	103
COc1ccc(C2Sc3nncn3N2Cc2ccc(C#N)cc2)cc1 (configuration not stated)	-9	-18	105	105
CC12CNCC(C)(CN(Cc3ccccc3)C1)C2	-9	26	99	98
O=C(CSc1nc2ccccc2n1CCc1ccccc1)NC1CCS(=O)(=O)C1 (configuration not stated)	14	9	105	103
Cc1ccc(OCc2nc(C#N)c(N3CC(C)OC(C)C3)o2)cc1 (configuration not stated)	2	-3	104	103
CCCCN(C)c1nc(-c2ccc(OC)cc2)nc2ccccc12	78	-29	99	100
O=C(CN1C(=O)CCc2ccccc21)NCc1ccccc1	-1	-4	102	109
CCCNC(=O)Cn1ncc2c3ccccc3n(C)c2c1=O	55	6	100	105
Cc1oc(-n2cccc2)c(C#N)c1C(=O)NC1CCCCCC1	13	2	107	105
Cc1ccc(NS(C)(=O)=O)cc1F	-2	8	100	102
O=C(c1cnc2c(c1)c(-c1ccccc1)nn2CCO)c1ccccc1O	14	-26	104	107
CC(C)C1=NNC(=O)C1(C)C	-14	-17	106	109
COC(=O)c1ccccc1S(=O)(=O)Nc1ccc2nc(C)sc2c1	38	-1	119	125
CCCNC(=O)c1c(C)c(C(=O)OCC)n(C)c1C	-3	-27	102	102
CCn1c(C)[n+](CC)c2ccc(Cl)cc21	3	.	103	99
CCSc1nnc(-c2cccc(S(=O)(=O)N(C)C)c2)n1-c1ccc(F)cc1	-37	1	105	107
Cc1cc(N2C(=O)CCC2=O)no1	.	-7	104	111
Cc1cc(C(=O)CSc2nnc(Cc3ccccc3)o2)c(C)n1CC1CCCO1 (configuration not stated)	2	-21	.	.
COCC(=O)OCn1nnc2ccccc2c1=O	29	-25	103	108
C[C@](N)(Cc1ccc(O)c(O)c1)C(=O)O	16&11	7&-6	102&101	103&101
COc1ccc(O)c(C(=O)c2cnc3onc(-c4ccc(Cl)cc4)c3c2)c1	3	-3	102	102
Cc1cc2cc(OCc3ccccc3)ccc2n1C	-14	-31	103	102
O=C(COC(=O)CCC1CCCC1)Nc1ccccc1Br	-6	.	102	104
CCN(CC)S(=O)(=O)c1ccc(NC2c3ccccc3C(=O)N2c2ccccn2)cc1 (configuration not stated)	8	-8	100	100
COCC(O)CSc1nc(C)cc(C)n1 (configuration not stated)	-13	-15	100	101
CNC(=O)Oc1c(Br)cc2sc(=O)oc2c1Br	100*	9	95	94
COC(=O)c1cc(CSc2nnc3c(Cl)cc(Cl)cn23)oc1C	-4	-9	103	106
CC(C)[C@H](NC(=O)c1ccc(C(C)(C)C)cc1)C(=O)NCc1ccco1	-40	-15	106	112
c1cncc(C2CCCCN2Cc2ccc3c(c2)OCO3)c1 (configuration not stated)	-22	-1	101	103
Cc1cc(C)n2nc(SCC(=O)NCc3ccc(Cl)cc3)nc2n1	6	0	100	98
CCc1c(C)sc(NC(=O)/C=C/c2cccs2)c1C(=O)OC	-18	-42	100	105
Carrying on:
SMILES	Mtb MbtI inh	Mtb MenB inh	Polio RdRp inh	Polio RdRp inh intensity
COCCN1C(=O)c2ccccc2C(C(=O)NC2CC2)C1c1cccs1 (configuration not stated)	1	-9	101	104
CN1c2ccccc2C(C)(C)C12C=Cc1cc(O)ccc1O2 (configuration not stated)	0	-40	102	102
O=C(NCCSc1ccccc1)C1CCCN1S(=O)(=O)c1ccc2ccccc2c1 (configuration not stated)	.	-22	109	113
Oc1ccccc1C1=NN2C(C1)c1ccccc1OC21CCCC1 (configuration not stated)	-4	2	102	103
CC(C(=O)NCCc1ccccc1)n1c2ccccc2c2cn[nH]c(=O)c21 (configuration not stated)	54	-11	102	103
Cc1sc2nc(Cn3nnc(-c4cccc(C(F)(F)F)c4)n3)[nH]c(=O)c2c1C	30	-7	112	115
O=C(O)CCN1C(=O)c2ccncc2C1=O	.	-8	110	111
O=C(Nc1nn[nH]n1)C1c2ccccc2Oc2ccccc21	0	-3	98	94
N#C/C(=C(/O)c1ccc(C(=O)c2ccccc2)cc1)c1nc2ccccc2s1	8	-19	100	97
O=C(NC1CCCC1)c1cnc(N2CCCC2)nc1	-42	-11	106	105
CN1/C(=C\C(=O)c2ccccc2)C(C)(C)c2ccccc21	6	.	101	97
COC(=O)C(C)(C)NC(=O)Nc1ccc(Cl)cc1Cl	-2	-32	104	100
O=C(NC1CCCc2ccccc21)C1CCCN(c2nnc(-n3cccc3)s2)C1 (configuration not stated)	-9	-9	105	108
O=C(NCc1ccccc1)c1ccc2cn[nH]c2c1	106	-8	100	102
Cc1n[nH]c(=O)c2c1nnn2Cc1ccccc1F	-23	-20	100	98
O=C(O)/C(=C/c1ccc2c(c1)OCO2)NC(=O)c1ccccc1Br	8	9	98	100
C=CCN1C(=O)C2(C(C#N)=C(N)Oc3n[nH]c(COC)c32)c2ccccc21 (configuration not stated)	-6	-41	105	99
O=C(c1ccccc1/S(=N/S(=O)(=O)c1ccccc1)N1CCOCC1)N1CCOCC1 (configuration not stated)	-13	-9	101	105
O=C(NCc1ccccc1)c1cccc(Cl)c1	-7	-1	106	101
COc1ccccc1COn1c(=O)c(-c2ccco2)[n+]([O-])c2ccccc21	14	-38	102	101
CCC(C)Nc1nc(OC(C(F)(F)F)C(F)(F)F)nc(N(CC)CC)n1 (configuration not stated)	-23	-17	100	100
COC(=O)C12CC3CC(C)(CC(C)(C3)C1)C2	-7	.	100	109
Cc1ccc(S(=O)(=O)NCCOc2nc(N3CCOCC3)nc(N3CCOCC3)n2)cc1	-4	-1	102	102
CCOC(=O)c1cc2c(=O)[nH]c3ccccc3c2s1	3	8	100	103
Cc1ccc(-c2cc(C(=O)OCC(=O)Nc3nc(C)c(Cl)cc3Cl)c3ccccc3n2)o1	25	9	111	103
CCCC(=O)Nc1ccc(OCC(O)CNC(C)C)c(C(C)=O)c1 (configuration not stated)	-11&0	-5&8	101&100	100&97
CC1(C)CC(=O)C2=C(C1)OC(c1ccc(I)o1)C(C#N)=C2N (configuration not stated)	4	-27	103	99
CC(C)C1O/C(=N\C(=O)Nc2ccc(Cl)c(Cl)c2)NC1=O (configuration not stated)	-1	-17	105	111
c1ccc(-c2nc3cc(NCc4cccnc4)ccc3o2)cc1	.	-23	101	104
CC1(C)Cc2[nH]c(=O)c(C#N)cc2CS1	89	-5	102	102
N#CCn1c(=O)n(C2CCCCC2)c(=O)c2cccnc21	16	-2	101	104
COCC(C)n1c(COc2ccccc2F)nnc1SCc1nc2ccccc2s1 (configuration not stated)	12	-2	99	120
CCNC(=O)N1CCN(C(=O)NCC)CC1	-23	-17	100	103
CCN(CC)C(=O)c1cc(-c2cccs2)nc2c1c(C)nn2-c1ccccc1C	23	-7	103	104
CC(C)CN(C(=O)CSC1=Nc2ccccc2C2CC=NN12)C1CCS(=O)(=O)C1 (configuration not stated)	8	17	103	105
CC1Cc2ccccc2N1C(=O)C1CCCN1S(=O)(=O)c1ccc(Cl)cc1 (configuration not stated)	-4	-24	.	.
COc1ccccc1OCCSc1nnnn1C1CCCCC1	-1	-6	102	107
CCCCn1nnnc1COC(=O)c1ccccc1SCc1c(C)noc1C	7	-45	101	108
COCCNc1nnc(SCC(=O)c2ccc3c(c2)OCO3)s1	13	-3	.	.
Cc1ccc(Cn2c(C3CC3)nc3ccc(N)cc3c2=O)cc1	89	-18	103	102
CCN1C(=O)/C(=C/C=C2/CCCN2C)N(c2ccccc2)C1=S	23	3	104	101
O=C(Nc1ccc(N2CCOCC2)cc1)c1nc2ccccc2s1	.	-11	110	115
COc1ccccc1NC(=O)COc1ncnc2ccccc12	4	11	104	108
CC(Sc1nc2ccccc2o1)C(N)=O (configuration not stated)	5	-18	103	105
CCOC(=O)/C(C#N)=C/Nc1ccccc1	9	8	100	101
Cc1ccc(S(=O)(=O)c2c[nH]c3ccccc3c2=O)cc1	2	2	101	109
CCOc1ccc(S(=O)(=O)N(Cc2ccco2)Cc2ccccc2C#N)cc1	3	-10	100	104
CC1CN(c2ccnc3cc(Cl)ccc23)CC(C)O1 (configuration not stated)	-17	-28	104	93
Cc1cccc(CN2C(=O)c3ccccc3Sc3ccc(C(=O)NC(C)C)cc32)c1	1	-23	101	97
O=S(=O)(NC(c1ccccc1)c1nnc(-c2ccccc2)o1)c1ccc(F)cc1 (configuration not stated)	-23	-6	100	102
COc1ccc(CN(C)CN2C(=O)NC3(CCC(C(C)(C)C)CC3)C2=O)cc1 (configuration not stated)	-4	1	104	106
CC(C)C1Oc2cc3oc(=O)ccc3cc2/C1=N\O (configuration not stated)	.	-29	105	99
Cc1ccc(N(CC(O)Cn2c3ccccc3c3ccccc32)S(=O)(=O)c2ccccc2)cc1 (configuration not stated)	34	-54	103	103
